# Assay outcomes (PubChem)
# Mtb H37Rv = Mycobacterium tuberculosis H37Rv growth inhibition, cell based, confirmatory dose response (AID 1949); M. tuberculosis H37Rv growth inhibition; most inactive calls were filed without a number and no value below 0 was filed; one-dose inhibition, % at 10 µg/mL; IC50 in µg/mL for titrated hits; hit rate 1.6% among 100,000;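 active means confirmed in a dose series; inconclusive means about 50% or more but not retested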;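 further: bacteria grown 7 days with compound before Alamar blue readout; 0% = untreated bacteria and 100% = reference antibiotic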
# * hit, by the source's call; i = inactive; ? = inconclusive.
SMILES,Mtb H37Rv
Nn1c(SCC(=O)O)nnc1-c1ccccc1,i
CC(=O)c1c(C)n(CC(=O)N2CCOCC2)c2ccccc12,i
Cc1ccnc(NC(=O)COc2cc(Cl)c(Cl)cc2Cl)c1,i
COC(=O)Oc1ccc2c(C)cc(=O)oc2c1,i
Cc1sc2c(c1C)c(=O)n(-c1ccccc1)c1nnc(C)n21,i
Cc1ccc(NC(=O)CN(c2ccc(Cl)cc2Cl)S(=O)(=O)c2ccccc2)cc1C,8.4%
COc1cc(C2C(C(=O)N3CCOCC3)=C(C)NC3=C2C(=O)CC(C)(C)C3)cc(Br)c1O (stereo not drawn),i
COc1ccc(-n2c(=S)[nH]c3nc4c(cc3c2=O)COC(C)(C)C4)cc1,i
COc1ccc(OC)c(N(CC(=O)Nc2ccc3c(c2)OCCO3)S(=O)(=O)c2ccc(OC)c(OC)c2)c1,i
Cc1ccc(C(=O)NC(=S)Nc2ccccc2Cl)cc1S(=O)(=O)N1CCOCC1,i
Cc1cc(C(=O)Nc2cccc(F)c2)ccc1[N+](=O)[O-],1.5%
CCOC(=O)c1c(C)n(C)c2ccc(OCc3nnnn3-c3ccccc3)cc12,0.9%
Cc1nc2ccccc2n1C(=O)CCCCC(=O)n1c(C)nc2ccccc21,i
Cc1ccc(SC(C)C(=O)NCc2cccnc2)cc1 (stereo not drawn),i
CCN(c1ccccc1)S(=O)(=O)c1ccc(NC(=O)c2ccccc2C)cc1,i
O=C(CN1C(=O)C2C3c4ccccc4C(c4ccccc43)C2C1=O)Oc1ccc(-c2ccccc2)cc1 (stereo not drawn),i
O=C(NCc1ccccc1Cl)c1ccccc1SCc1ccccc1,3.8%
COc1cccc(NC(=O)c2cc(-c3ccc(C)s3)nc3ccccc23)c1,i
O=C(Nc1ccc(S(=O)(=O)N2CCCCC2)cc1)c1ccc(CN2CCOCC2)cc1,i
Cc1cc(C)c2c(C)nn(C3CCCCC3)c2n1,i
Cc1cn2c3ccccc3n(Cc3ccc(Cl)cc3)c2n1,4.3%
O=C(c1ccco1)N1C(=O)c2cccc3c(S(=O)(=O)N4CCCC4)ccc1c23,i
O=C(Nc1nc2c(s1)CCc1ccccc1-2)c1cccs1,i
O=C(CSc1nnc(-c2ccncc2)o1)Nc1ccc(F)cc1,i
COc1ccc(S(=O)(=O)NC2CCCCC2)c(C)c1C,6.9%
COc1cccc(-n2c(SCC#N)nc3c(c2=O)C2(CCCCC2)Cc2ccccc2-3)c1,1.4%
Cc1cc(C)c(NC(=O)CN(c2cc(C(F)(F)F)ccc2Cl)S(C)(=O)=O)c(C)c1,i
CCOC(=O)C1CCN(Cc2nc(-c3ccc(C)cc3)no2)CC1,i
CC(=O)NC1(C(F)(F)F)C(=O)Nc2c1c(=O)[nH]c(=O)n2CC(C)C (stereo not drawn),i
COc1ccc(C(=O)CSc2nc(N)nc(SC)c2C#N)cc1,i
Nc1cc(=O)[nH]c(SCC(=O)N2CCCCC2)n1,i
CCN(CC)C(=O)C1CCCN(C(=S)Nc2cccc3ccccc23)C1 (stereo not drawn),7.5%
CCc1c(C)sc(NC(=S)Nc2ccc3c(C(F)(F)F)cc(=O)oc3c2)c1C(=O)OC,i
COc1ccc(S(=O)(=O)NCCSc2ccccc2)cc1Br,i
C=CCN(c1ccc(C(=O)NCCSc2ccc(C)cc2)cc1)S(C)(=O)=O,i
CCOC(=O)C1=C(c2ccccc2)NC(=S)NC1c1ccccc1Br (stereo not drawn),i
O=S(=O)(c1ccc(Cl)cc1)N1CCN(S(=O)(=O)N2CCOCC2)CC1,i
O=C(CN(c1ccccc1)S(=O)(=O)c1ccc(Cl)cc1)N1CCCCCC1,5.5%
COc1ccccc1C1CC(c2ccc(Br)cc2)=NN1C(=O)c1ccncc1 (stereo not drawn),i
Cc1ccc(C2C(C#N)=C(SCC(=O)N3c4ccccc4CC3C)NC3=C2C(=O)CCC3)o1 (stereo not drawn),2.7%
COc1cccc(NC(=O)CN(c2cccc(C)c2C)S(=O)(=O)c2ccc(C)cc2)c1,0.2%
O=C(NC(=S)Nc1ccc(N2CCCCC2)cc1)c1ccc2c(c1)OCCO2,?
O=C(NCc1ccccc1)c1cccc(COc2ccc3c(c2)CCC3)c1,21.2%
CC1CC(=O)c2cnc(N3CCN(Cc4ccc5c(c4)OCO5)CC3)nc2C1 (stereo not drawn),1.0%
CC1=NN(c2ccc(Cl)c(C(=O)O)c2)C(=O)/C1=C\c1cccc(Br)c1,i

# Molecules shown so far containing a thiophene ring, fused or not, in the order listed:
SMILES,Mtb H37Rv
Cc1sc2c(c1C)c(=O)n(-c1ccccc1)c1nnc(C)n21,i
COc1cccc(NC(=O)c2cc(-c3ccc(C)s3)nc3ccccc23)c1,i
O=C(Nc1nc2c(s1)CCc1ccccc1-2)c1cccs1,i
CCc1c(C)sc(NC(=S)Nc2ccc3c(C(F)(F)F)cc(=O)oc3c2)c1C(=O)OC,i

# By substructure, the compounds so far with a COOH group.
SMILES,Mtb H37Rv
Nn1c(SCC(=O)O)nnc1-c1ccccc1,i
CC1=NN(c2ccc(Cl)c(C(=O)O)c2)C(=O)/C1=C\c1cccc(Br)c1,i

# The results go on.
SMILES,Mtb H37Rv
CC(C)(C#N)NC(=O)C1Cc2ccccc2CN1S(=O)(=O)c1ccc(F)cc1 (stereo not drawn),i
CCc1ccccc1NC(=O)CSCc1ccc(Br)cc1,i
Cc1ccccc1CNS(=O)(=O)c1ccc(C)c([N+](=O)[O-])c1,0.5%
CC(=O)c1cccc(NC(=O)COc2ccc(Br)cc2Cl)c1,i
Cc1cc(NC(=O)CCSc2ccc(Cl)cc2)ccc1Br,29.4%
CCC(O)(C#CCN1CCOCC1)CC,5.5%
CC(C)(O)C#Cc1ccc(C(=O)N2CCN(c3cccc(Cl)c3)CC2)cc1,i
O=C(Nc1ccc(Br)cc1)c1nc[nH]c1C(=O)Nc1ccc(Cl)cc1,1.1%
Cc1nnc2sc(-c3ccc(NC(=O)c4sc5ccccc5c4Cl)cc3)nn12,3.3%
O=C(Nc1ccc(N2CCOCC2)c(Cl)c1)c1ccc(Cl)cc1Cl,i
Cn1c(Cc2cccc3ccccc23)nnc1SCC(=O)N1CCc2ccccc21,i
COC(=O)C1=C(C)NC(SCC(=O)c2ccc3c(c2)OCO3)=C(C#N)C1c1cccs1 (stereo not drawn),i
Cc1ccc(C(=O)NCCCn2ccnc2)cn1,i
COC(=O)c1cc(NC(=O)c2cccc(Cl)c2)ccc1Cl,5.6%
COc1ccc(-c2cc(C(=O)Oc3ccccc3C(C)=O)c3ccccc3n2)cc1,i
COC(=O)COc1ccc(Cl)cc1C1NC(=S)NC(c2ccccc2)=C1C(=O)c1ccccc1 (stereo not drawn),i
NC(=O)CSc1nnc(-c2ccccn2)n1-c1ccccc1,i
CC(NC(=O)CCn1nc(-c2ccc(Cl)cc2)c2ccccc2c1=O)c1ccccc1 (stereo not drawn),i
COc1ccccc1C(=O)NC(=S)NNC(=O)Cc1cccc2ccccc12,i
COc1cc(Cl)c(C)cc1NC(=O)COc1ccccc1[N+](=O)[O-],i
O=C(c1ccccc1)c1ccc2nc(-c3ccc(NC(=O)c4ccco4)cc3)[nH]c2c1,i
COc1ccc(OC(C)C(=O)Nc2cccc(C(F)(F)F)c2)cc1 (stereo not drawn),i
COc1ccc(NC(=O)CC2SC3=NCCN3C2=O)cc1 (stereo not drawn),i
C=CCC1(O)C(C)C(c2ccccc2)N(C)C(c2ccccc2)C1C (stereo not drawn),3.5%
COc1ccc(CC(=O)Nc2cccc(C)n2)cc1OC,2.7%
CCOC(=O)c1ccccc1NC(=O)CCCN1C(=O)c2ccccc2C1=O,4.5%
C=CCn1c(-c2cccc3ccccc23)n[nH]c1=S,0.7%
O=C(O)c1ccc(NS(=O)(=O)c2ccc3c(c2)OCCO3)cc1,i
CCOc1ccccc1C1C(C#N)=C(SCC(=O)Nc2cccc(C)c2)NC(C)=C1C(=O)OC (stereo not drawn),i
CCCn1nnnc1NC(=S)NC(=O)c1cc2ccccc2o1,i
COC(=O)c1c(NC(=O)C(=O)NCc2cccnc2)sc2c1CCCC2,i
O=C(Nc1ccc(F)cc1)c1cn(-c2ccccc2)nc1-c1cc2ccccc2oc1=O,2.1%
Cc1cc(C)nc(Nc2ncc(O)n2-c2ccccc2C)n1,i
O=C(Nc1ccon1)c1ccc(S(=O)(=O)N2CCCCCC2)cc1,0.3%
CC1CCN(CC(=O)Nc2ccc(Cl)cc2C(=O)c2ccccc2)CC1,1.9%
Fc1ccc(CSc2nc3ccccc3[nH]2)c(Cl)c1,4.2%
O=C(Cc1ccc(Cl)cc1)Nc1ccc2oc(-c3cccnc3)nc2c1,2.6%
Oc1ccc(NCc2ccc(Br)cc2)cc1,i
CCc1ccccc1NC(=O)c1ccc(CN2CCC(Cc3ccccc3)CC2)cc1,?
CC(C)CC(=O)Nc1scc(-c2ccccc2)c1C(=O)Nc1ccccc1F,5.8%
Cc1ccc(NC(=O)CN(C)S(=O)(=O)c2ccc(F)cc2)cc1Cl,i
COc1cc(C2NC(=O)NC(C)=C2C(=O)Nc2cc(C)cc(C)c2)cc(OC)c1OC (stereo not drawn),i
CC1(C)CCN2CCC(C)(C)c3c(O)ccc1c32,?
Cc1cc(C)cc(OCC(=O)NCc2ccc3c(c2)OCO3)c1,i
CCC1(c2ccc(-c3ccccc3)cc2)C(=O)NC(=O)NC1=O,i

# The list goes on; the last 2 above are carried over.
SMILES,Mtb H37Rv
Cc1cc(C)cc(OCC(=O)NCc2ccc3c(c2)OCO3)c1,i
CCC1(c2ccc(-c3ccccc3)cc2)C(=O)NC(=O)NC1=O,i
COc1ccccc1NC(=O)c1ccc(-c2nn(C)c(=O)c3ccccc23)cc1,i
O=S(=O)(NCc1cccs1)c1ccc(Br)cc1,i
Cc1cc(I)cc(C)c1NC(=O)c1ccc(Cl)cc1Cl,?
COc1ccc(CCNC(=S)Nc2ccc(OC)cc2)cc1,i
CCOc1ccccc1NC(=O)CN(Cc1ccc(C)cc1)S(=O)(=O)c1ccccc1,i
O=S(=O)(Cc1ccccc1)Nc1ccccc1Cl,i
COC(=O)c1ccccc1NC(=S)NC(=O)COc1ccc(C(C)C)cc1,i
COc1ccc(N2C(=O)/C(=C/c3cccn3-c3ccc(Br)cc3)C(=O)NC2=S)cc1,i
O=C(O)c1cc2c(cc1[N+](=O)[O-])OCCO2,i
O=C(COc1cc2oc(=O)c3c(c2cc1Cl)CCC3)NCC1CCCO1 (stereo not drawn),i
Cc1csc(NC(=O)Nc2cccc(Cl)c2)n1,17.3%
Cc1cc(=O)[nH]c(Sc2c(-c3ccccc3)c3cc([N+](=O)[O-])ccc3[nH]c2=O)n1,i
COC(=O)c1c(NC(=S)NNC(=O)c2ccc3c(c2)OCO3)sc2c1CCCCCC2,i
COc1ccc(-c2nc3cc(NC(=S)NC(=O)c4ccco4)ccc3o2)cc1Cl,i
NC(=O)NC(=O)CC1Sc2ccc(C(F)(F)F)cc2NC1=O (stereo not drawn),i

# Exported with tabs: part of the list above
compound	Mtb H37Rv
Cc1cc(I)cc(C)c1NC(=O)c1ccc(Cl)cc1Cl	?
COc1ccc(CCNC(=S)Nc2ccc(OC)cc2)cc1	i

# Further structures
SMILES,Mtb H37Rv
COc1ccccc1N1CCN(C(=O)Nc2cccc(C(F)(F)F)c2)CC1,2.1%
Cc1cc(Cl)ccc1NC(=O)COc1ccc(C(C)C)c(C)c1,5.1%
O=C(Nc1ccc([N+](=O)[O-])cc1Cl)c1cc(-c2ccccc2)on1,i
CC(C)c1ccc(NC(=O)CSc2nnc(NC(=O)c3ccc([N+](=O)[O-])cc3)s2)cc1,i
Cc1ccc(OCC(=O)N2CCN(C(=O)c3ccc([N+](=O)[O-])cc3)CC2)cc1,i
Cc1nnc(SCC(=O)NC2CCCCC2)[nH]c1=O,0.2%
COc1ccc(NC(=O)c2ccccc2NC(=O)COc2ccc(Cl)cc2Cl)cc1,i
COc1cc(NC(=O)CCC2CCCC2)cc(OC)c1,i
CCOC(=O)C1CCN(S(=O)(=O)c2cccs2)CC1,i
Cc1ccccc1OCCn1c(=O)oc2ccccc21,i
COc1ccc(C2(C(=O)Nc3ccc(C(=O)N4CCCC4)cc3)CCOCC2)cc1,i
Cc1ccnc(SCC(=O)c2cccc([N+](=O)[O-])c2)n1,i
Cn1c(SCc2nc3ccccc3[nH]2)nnc1-c1ccccn1,i
O=C1C2(c3ccccc3)CN(CCCO)CC1(c1ccccc1)CN(CCCO)C2,i
COc1cc(C2C3=C(CCCC3=O)NC3=C2C(=O)CCC3)c(Cl)cc1O,i
O=C(CC1(O)C(=O)Nc2ccc(Cl)cc21)c1ccc(Br)cc1 (stereo not drawn),i
Cc1ccc(Cl)cc1NC(=O)c1ccc(C(C)C)cc1,i
CCOc1ccc(N2CC(C(=O)Nc3ccccc3C(C)(C)C)CC2=O)cc1 (stereo not drawn),i
CC(=O)c1cccc(NC(=O)c2ccc(CNS(=O)(=O)c3ccc(C(C)(C)C)cc3)cc2)c1,i
O=c1c([N+](=O)[O-])c(N2CCN(C3CCCC3)CC2)c2ccccc2n1-c1ccccc1,i
Cc1c(NC(=O)c2cccc(-c3cc4ccccc4oc3=O)c2)cccc1-c1nc2ncccc2o1,i
COc1ccccc1/C=C/c1nn2c(Cc3ccccc3)nnc2s1,0.4%
NC(=O)CSCc1ccccc1Cl,i
C=CCSc1nnc(NC(=O)CSc2nc3ccccc3o2)s1,i
O=Cc1ccc(OCc2ccc(Cl)cc2)c(Br)c1,i
CCOc1ccccc1N1CC(C(=O)Nc2nccs2)CC1=O (stereo not drawn),1.1%
FC(F)Sc1nnc(-c2cccs2)n1-c1ccccc1,i
C=CCn1c(SCC(=O)Nc2nc3ccccc3s2)nnc1-c1cc2cccc(OC)c2o1,i
Cc1ccc(S(=O)(=O)N(CC(=O)Nc2ccc(C(N)=O)cc2)Cc2ccccc2Cl)cc1,i

# These rows are one share of the data; rates above refer to the full screens.
